From PubChem
FGF22 binding = binders of human FGF22 protein, primary screen, FGF22 synaptogenesis inhibitor project, biophysical, thermal shift, single point | recombinant FGF22 thermal shift, SYPRO orange fluorescence; percent of sucrose octasulfate shift, DMSO zero | calls only at 9.99 µM | 340,000 compounds, 1.5% hits | Fibroblast growth factor 22 (Homo sapiens), Q9HCT0;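 active = melting point raised past a set limit in the mean and every replicate; inconclusive = no clear call; three in four hits are not shown here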
Target sequence (Q9HCT0 whole entry, looked up): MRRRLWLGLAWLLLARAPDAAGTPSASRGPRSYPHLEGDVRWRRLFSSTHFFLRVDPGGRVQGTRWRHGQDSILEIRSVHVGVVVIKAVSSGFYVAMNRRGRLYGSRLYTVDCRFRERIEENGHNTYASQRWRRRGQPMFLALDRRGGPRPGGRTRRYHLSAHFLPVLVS
A1 inh = caspase 3/7 activation in MEF A1-2A-BIM cells, primary screen, A1 inhibitor project, cell-based, luminescence, HTS. 330,000 compounds, 0.066% hits. Caspase-Glo 3/7 luminescence, 3 h; percent of clofoctol response, vehicle zero. caspase activation, % (test concentration not listed);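 active = over half of replicate activation scores above 10%, or exactly half above 10 with the replicate mean above 10; inconclusive = replicate mean below 10 yet half the replicates above 10; inactive = over half of replicates below 10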;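 note: wells of about 30 µL received 50 nL stock; many hits fall short of the cut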
Ecoli growth = E. coli growth inhibition, primary screen, OD600 | Escherichia coli growth, 23 h; stronger effect = lower value | OD600 absorbance (test concentration not listed) | 330,000 compounds, 0.21% hits;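 active = OD600 absorbance below the run mean of sample wells minus 3.6 SD, in any replicate, cut at about 0.56 in these data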;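 note: stock transfer was 300 nL into about 60 µL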
UCH37 DUB inh = inhibitors of human UCH37 deubiquitinase, primary screen, biochemical, Ub-AMC cleavage, fluorescence | Ubiquitin carboxyl-terminal hydrolase isozyme L5 (Homo sapiens), Q9Y5K5 | purified proteasome/UCH37 | inhibition, % (test concentration not listed) | 330,000 compounds, 0.33% hits;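 active = mean of two replicates above 20%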;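 note: 0% = compound-free wells with enzyme and 100% = wells lacking proteasome; stock transfer was 100 nL into about 20 µL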
Target sequence (Q9Y5K5 whole entry, looked up): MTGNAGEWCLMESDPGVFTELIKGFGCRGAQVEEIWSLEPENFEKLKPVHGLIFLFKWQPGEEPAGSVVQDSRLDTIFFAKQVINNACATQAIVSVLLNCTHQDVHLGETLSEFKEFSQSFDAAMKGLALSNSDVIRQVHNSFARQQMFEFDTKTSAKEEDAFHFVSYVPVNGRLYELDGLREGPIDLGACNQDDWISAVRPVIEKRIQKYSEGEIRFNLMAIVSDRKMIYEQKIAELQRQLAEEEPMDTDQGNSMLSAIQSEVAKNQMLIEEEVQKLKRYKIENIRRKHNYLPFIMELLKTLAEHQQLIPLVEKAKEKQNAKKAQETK
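Material: Human UCH37 enzyme supplied as purified proteasome complex | Schedule: 30 min compound-proteasome preincubation then 25 min substrate reaction, room temperature | Detection: AMC fluorescence from Ub-AMC cleavage, excitation 355 nm, emission 460 nm | Benchmarks: Wells without proteasome as full block, compound-free enzyme plus substrate as uninhibited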
MLL AF4-AF9 inh = inhibitors of AF4 peptide binding to AF9, primary screen, biochemical, AlphaScreen, biotin-AF4 peptide, FLAG-AF9, single point; Protein AF-9 (Homo sapiens), P42568; inhibition, % at 10 µM; 350,000 compounds, 0.47% hits; AID 651704, 2012;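 active = every replicate reaching a set inhibition limit, whatever the replicate mean, cut at about 25% in these data; inconclusive = mean inhibition reaches that limit but some replicates miss it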;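 note: 0% = plate neutral control median and 100% = total signal loss; the record names both 10 and 1 µM as test concentration; the first replicate is given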
Target sequence (P42568 whole entry, looked up): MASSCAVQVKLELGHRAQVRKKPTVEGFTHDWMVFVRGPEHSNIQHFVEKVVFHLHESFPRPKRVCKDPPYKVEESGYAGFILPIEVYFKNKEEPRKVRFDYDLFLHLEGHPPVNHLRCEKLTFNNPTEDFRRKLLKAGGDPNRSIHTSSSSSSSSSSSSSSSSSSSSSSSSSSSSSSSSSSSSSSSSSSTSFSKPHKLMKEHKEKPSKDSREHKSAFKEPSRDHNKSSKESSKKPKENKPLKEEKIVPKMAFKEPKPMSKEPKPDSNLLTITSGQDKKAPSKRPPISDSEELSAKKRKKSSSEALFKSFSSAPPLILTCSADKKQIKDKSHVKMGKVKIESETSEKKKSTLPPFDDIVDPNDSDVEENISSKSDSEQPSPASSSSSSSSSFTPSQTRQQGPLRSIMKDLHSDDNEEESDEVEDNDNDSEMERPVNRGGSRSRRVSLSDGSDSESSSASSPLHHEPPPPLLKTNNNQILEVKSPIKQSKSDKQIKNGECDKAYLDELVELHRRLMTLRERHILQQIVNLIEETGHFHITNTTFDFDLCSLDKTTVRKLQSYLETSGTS
rRNA inh HTS = reduced GFP signal of wild-type E. coli, primary screen, bacterial rRNA inhibitor project, GFP/RFP fluorescence, OD600, single point | GFP signal change (wild-type ribosome), % (test concentration not listed) | E. coli WT GFP vs humanized-ribosome RFP mutants, 24 h; stronger effect = lower value; DMSO median 0, no signal -100 | 350,000 compounds, 1.6% hits;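 active = significant combined selectivity score with lowered wild-type GFP, culture density cut under 30%, mutant RFP and density less affected; inactive = any of these conditions unmet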; note: one replicate is shown; some compounds called inactive have numbers as strong as hits
T cruzi inh = inhibitors of intracellular T. cruzi growth, primary screen, luminescence, NIH3T3 host cells; T. cruzi beta-gal in NIH3T3, 90 h; inhibition, % (test concentration not listed); 300,000 compounds, 1.4% hits;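 active = mean inhibition across valid replicates above about 55%, limit read from the data; inconclusive = mean below that limit but half or more replicates reach it; inactive = mean below it, under half of replicates reach it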;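 note: signal also drops with host cell toxicity which is not excluded here; 0% = plate median of DMSO wells and 100% = zero luminescence signal; higher percent means less beta-gal luminescence so fewer parasites; stock transfer was 50 nL into about 50 µL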
Beta apoptosis = inhibitors of cytokine-induced beta cell apoptosis, primary screen, luminescence; INS-1E cytokine-induced death, ATP luminescence, 48 h; percent of positive-control rescue, neutral wells zero; protection from apoptosis, % (concentration not given with the values); 300,000 compounds, 0.8% hits;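 active = all replicates at 75% or more, or half of them and the mean; inconclusive = half reach 75% but not the mean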;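 note: 0% = cytokine-treated negative control wells and 100% = positive control rescue; higher means more ATP so stronger rescue from cytokine killing; wells of about 40 µL received 100 nL stock; the first replicate is given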
rRNA inh HTS OD600 = further read-out of rRNA inh HTS, marked with its call; OD600 change, %; measured here: OD600 growth;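 optical density of the mix in the first replicate; 0 = DMSO median and -100 = no signal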
rRNA inh HTS RFP = further read-out of rRNA inh HTS, marked with its call; RFP signal change, %; measured here: RFP humanized mutant strains;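 first replicate; 0 = DMSO median and -100 = no signal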
* hit, by the source's call; i = inactive; ? = inconclusive; · = not tested or not shown. An excerpt; rates above refer to the full screens.

Preview (4 entries):
SMILES	FGF22 binding	A1 inh	Ecoli growth	UCH37 DUB inh	MLL AF4-AF9 inh	rRNA inh HTS	rRNA inh HTS OD600	rRNA inh HTS RFP	T cruzi inh	Beta apoptosis
COc1ccc(C)cc1NC(=O)CSc1nnc(-c2ccco2)n1N	·	0.2	0.65	1.0	·	·	·	·	8	-1
COC(=O)C(C)Sc1nc2ccsc2c(=O)n1Cc1ccccc1 (centres undefined)	i	0.5	0.66	0.2	-13	-7	-10	4.7	-12	-2
CCOc1cc(/C=N\Nc2nc(-c3ccc(C)cc3)c(NC(C)=O)s2)ccc1O	i	0.8	·	·	-5.8	-1	-4	-5.2	-5	-4
CCOn1c(SCC)nc2ccccc2c1=O	·	-0.1	0.71	3.5	·	·	·	·	-11	-5

All compounds of this part, previewed entries included:
SMILES	FGF22 binding	A1 inh	Ecoli growth	UCH37 DUB inh	MLL AF4-AF9 inh	rRNA inh HTS	rRNA inh HTS OD600	rRNA inh HTS RFP	T cruzi inh	Beta apoptosis
COc1ccc(C)cc1NC(=O)CSc1nnc(-c2ccco2)n1N	·	0.2	0.65	1.0	·	·	·	·	8	-1
COC(=O)C(C)Sc1nc2ccsc2c(=O)n1Cc1ccccc1 (centres undefined)	i	0.5	0.66	0.2	-13	-7	-10	4.7	-12	-2
CCOc1cc(/C=N\Nc2nc(-c3ccc(C)cc3)c(NC(C)=O)s2)ccc1O	i	0.8	·	·	-5.8	-1	-4	-5.2	-5	-4
CCOn1c(SCC)nc2ccccc2c1=O	·	-0.1	0.71	3.5	·	·	·	·	-11	-5
CN(CCO)c1ccc([N+](=O)[O-])cc1C(=O)O	·	0.6	0.69	8.1	·	·	·	·	-14	-3
Cc1onc(-c2ccccc2Cl)c1C(=O)Nc1ccc(-n2nncc2C(C)(C)C)cc1	·	-0.6	0.74	3.3	·	·	·	·	-18	-7
OCC[C@H]1C[C@@H](O)[C@H](O)[C@@]2(OCCc3ccccc32)O1	i	-0.1	·	0.0	-1.6	4	11	6.9	·	-1
CCc1cccc(C)c1NC(=S)N(CCCN1CCOCC1)Cc1cccnc1	i	0.3	0.7	4.7	-1.6	27	12	2.5	-7	-4
CCOC(=O)c1c(NC(=O)COC(=O)/C=C/c2ccco2)sc2c1CC(C)(C)NC2(C)C	i	-0.3	0.65	2.1	10	-14	-17	13	6	-5
CSCCC(NC(=O)c1cccc(C)c1)C(=O)NCc1cccs1 (centres undefined)	i	-0.9	0.67	-0.6	0.6	·	·	·	·	-2
OC(CN1CCCC(C(F)(F)F)C1)c1ccccc1 (centres undefined)	i	0.3	0.65	1.6	-11	10	8	-0.9	-3	-1
CCCN(CCC)C(=O)C1CC(=O)OC12CCCCC2 (centres undefined)	i	-0.4	0.67	4.6	-0.3	18	8	-0.1	-5	-1
CCN(CC(=O)Nc1ccc(NC(C)=O)cc1)C(=O)c1cc2c(s1)CCCCC2	i	-0.6	0.67	-0.1	0.5	1	-12	-0.2	·	8
C=C1C[C@@]23CCC4[C@@](C)(CCC[C@@]4(C)C(=O)O)C2CC[C@]1(O)C3 (some centres undefined)	i	-1.5	0.69	1.1	-1.8	·	·	·	·	-5
COC(=O)c1ccc(/C=C2\SC(=S)N(CCCC(=O)N3CCOCC3)C2=O)cc1	i	·	0.66	4.9	-0.7	6	11	5.1	·	·
N#CCSc1ccc2nc(-c3ccccc3)cn2n1	i	-2.3	0.73	-379	1.7	3	2	0.8	-5	3
CCOc1cc(Br)c(CN2C(=O)NC3(CCCCCC3)C2=O)cc1OCC	i	-0.5	0.69	2.2	-18	-6	-5	2.3	30	4
O=C(CSc1ncn(-c2ccccc2)n1)Nc1nncs1	i	0.1	0.7	1.3	1.0	4	5	0.6	-5	-5
c1ccc(Nc2nc3ccccc3n3nnnc23)cc1	i	0.0	0.68	-6.4	-1.3	15	7	-0.5	4	14
CC(C)CC(=O)NC(=S)N(Cc1ccccc1)Cc1ccccc1	·	0.3	0.65	0.5	·	·	·	·	-12	-2
COC(=O)c1ccc(Cl)c(NC(=O)NC2CCCCC2)c1	·	-0.4	0.73	1.1	·	·	·	·	21	-3
O=C(Nc1ccc(-c2noc(CCc3ccccc3)n2)cc1)c1ccco1	·	-0.2	0.67	4.2	·	·	·	·	9	·
S=C(Nc1nc2c(s1)CCCC2)NC1CC1	i	0.6	0.68	1.6	-0.3	-28	-24	-10.0	11	4
CCN(CC)CCNC(=O)c1ccc(NC(=O)COc2ccccc2F)cc1	i	0.0	0.7	5.5	-1.5	11	6	0.6	18	-3
Cc1ccc2c(Cn3ccnc3)cc(=O)oc2c1C	i	-0.4	0.63	1.6	-2.8	9	3	1.8	1	0
Next records:
SMILES	FGF22 binding	A1 inh	Ecoli growth	UCH37 DUB inh	MLL AF4-AF9 inh	rRNA inh HTS	rRNA inh HTS OD600	rRNA inh HTS RFP	T cruzi inh	Beta apoptosis
O=C(Cc1ccccc1)Nc1ccc(NC(=O)c2cccs2)cc1	i	-0.7	0.72	-2.2	-0.1	13	17	2.2	0	2
CC(C)CN(CC(C)C)S(=O)(=O)N1CCC(C(=O)NCc2cccs2)CC1	i	-0.4	0.63	1.8	-18	-1	1	3.3	9	-7
Cc1nnsc1-c1onc(C)c1C(=O)O/N=C/c1ccc(Cl)cc1	i	-1.2	·	·	-0.1	4	-2	2.7	-10	-4
COC(=O)CCC(=O)NC(=S)Nc1cc(Cl)ccc1Cl	i	0.2	0.68	3.6	1.3	-15	-13	-0.1	8	-11
CN(C)C(=O)CCc1ccc2c3c([nH]c2c1)[C@]1(C)[C@@H](C(=O)N2CCOCC2)C[C@H](CC(=O)NC(C)(C)C)C(=O)N1CC3	i	·	0.71	4.4	2.1	2	5	-1.7	·	·
CCCCOc1ccc(N=Nc2ccc(N)nc2N)cn1	i	-0.6	·	·	17	-25*	-13*	-1.1*	14	8
COc1cc(C(c2c(C)[nH][nH]c2=O)c2c(C)[nH][nH]c2=O)ccc1OC(=O)c1cccc([N+](=O)[O-])c1	·	-0.1	0.7	4.9	·	·	·	·	·	3
COC(=O)c1c(C)cc(O)c(C)c1O	i	-0.9	0.68	5.1	-2.9	0	5	0.4	-3	·
O=C(NCCCNC(=O)c1ccco1)c1ccc(F)cc1	i	0.1	0.69	0.4	1.3	5	-1	-1.0	-1	·
CCc1ccc(S(=O)(=O)N2CCN(C(=O)C3CCN(C(C)=O)CC3)CC2)cc1	i	1.0	0.7	4.5	-4.4	2	7	-0.9	-2	-6
O=C(OCCOc1cccc(Cl)c1)c1ccc2ncsc2c1	i	0.2	0.69	0.4	-4.5	-2	-26	-12	-2	5
Cn1c(SCC(=O)c2ccccc2)nnc1-c1cccs1	i	-1.7	0.65	4.1	·	3	-2	-3.1	4	-10
O=C(Oc1ccc(C(=S)N2CCCCC2)cc1)c1ccccc1F	i	0.4	0.71	1.2	2.6	-16	-15	0.0	-15	-6
Cc1c(C(=O)Nc2ccccc2)sc2nc3n(c(=O)c12)CCCCC3	i	0.1	0.7	3.0	-0.6	-12	-13	-2.2	3	1
Cc1cc(C)c2oc(C(=O)NC3CCS(=O)(=O)C3)cc(=O)c2c1 (centres undefined)	i	?	0.68	-29	-1.5	0	7	-2.7	-3	-7
CCn1cc(C(=O)NCCc2ccc(C)cc2)c(=O)c2cc(S(=O)(=O)N(C)C)ccc21	i	1.9	0.62	1.4	-2.1	-3	-1	-2.2	-12	1
Cn1cccc1Cc1nnc(SCC(=O)N2CCCc3ccccc32)n1-c1ccc(F)cc1	i	-0.2	0.72	-0.4	6.4	2	0	8.3	7	0
O=C1CCCN1C(=O)CSc1nnnn1-c1ccccc1	i	0.6	·	·	-4.8	6	4	-0.2	·	-1
NC(N)=NC(=S)Nc1ccc(Cl)cc1	i	1.5	0.64	1.1	3.4	-4	3	-1.2	30	-4
O=[N+]([O-])c1ccccc1OCCOc1ccccc1[N+](=O)[O-]	·	-1.5	0.65	2.4	-2.4	6	3	-0.2	7	-2
COc1ccc(CCNC(=O)Cc2ccc(C)cc2)cc1OC	i	-0.1	0.61	2.0	-5.7	2	11	-4.0	3	-5
O=C(NCC1CCCO1)Nc1ccc2c(c1)OCO2 (centres undefined)	i	-0.2	0.73	0.7	-1.0	17	19	4.1	-8	3
CCOc1ccccc1C(=O)OCC(=O)NCCNC(=O)COC(=O)c1ccccc1OCC	i	0.3	0.69	2.7	-0.3	-2	4	-3.1	-15	-14
CC(=O)Nc1ccc(S(=O)(=O)NCC(=O)NC(C)c2ccc(S(N)(=O)=O)cc2)cc1 (centres undefined)	i	-0.1	0.65	4.4	-0.1	8	10	0.0	-13	-3
O=S(=O)(c1cccc2cccnc12)N1CCN(c2ccccc2)CC1	i	0.1	0.74	3.2	9.7	-16	-17	2.2	4	-5
(next part)
SMILES	FGF22 binding	A1 inh	Ecoli growth	UCH37 DUB inh	MLL AF4-AF9 inh	rRNA inh HTS	rRNA inh HTS OD600	rRNA inh HTS RFP	T cruzi inh	Beta apoptosis
O=C1C(c2ccc(F)cc2)N(Cc2ccc3c(c2)OCO3)C(=O)CN1C1CCCCCC1 (centres undefined)	·	-0.6	0.66	1.4	·	·	·	·	20	1
CC(C)OC(=O)CN1CCN(C2c3ccccc3-c3ccccc32)CC1	·	1.0	0.75	4.5	·	·	·	·	2	-2
CC1CCCN(c2nc3ccccc3nc2C(C#N)S(=O)(=O)c2ccccc2)C1 (centres undefined)	·	0.2	0.71	-1.7	·	·	·	·	-2	2
O=C(Nc1ncc2c(n1)CC(c1ccc(Cl)cc1)CC2=O)c1ccco1 (centres undefined)	i	-0.2	0.68	1.3	-5.0	10	5	-0.9	-9	1
Cc1onc(-c2ccccc2)c1C(=O)Nc1nc(-c2cc(F)ccc2F)cs1	·	-0.1	0.72	1.5	·	·	·	·	6	6
O=C(NC1CCCCC1)[C@H](CSCc1ccccc1)N1Cc2ccccc2C1=O	i	0.3	0.74	5.5	4.5	1	-17	-0.2	17	·
CC(C)(C)c1nnc(NC(=O)CS(=O)(=O)Cc2ccccc2)s1	i	-0.3	0.69	3.2	-1.6	0	-2	0.0	-8	0
O=S1(=O)CCN2C=C(Br)C=C(Br)C2=N1	i	1.5	0.7	-114	3.2	16	19	-3.6	-14	-6
CCCc1cc(=O)[nH]c(SCC(=O)Nc2ccc(Cl)c(S(=O)(=O)N3CCOCC3)c2)n1	i	·	0.67	4.2	-5.6	-1	-1	0.1	·	·
COc1ccc(NC(=O)c2cc3c(COC(C)=O)cnc(C)c3oc2=Nc2cccc(C(=O)O)c2)c(OC)c1	·	0.9	0.68	5.7	·	2	6	-1.8	0	-2
